# Screening data deposited in PubChem by National Center for Advancing Translational Sciences (NCATS).
# TRPML1 blocker – qHTS for Inhibitors of the Human Mucolipin Transient Receptor Potential 1 (TRPML1); TRPML1-inducible cells, Ca2+ dye fluorescence, FDSS; active compounds read low; inhibition of EC80 agonist-evoked calcium signal; activity change, negative = inhibition, % (concentration not given with the values); 0.02% of 390,000 active; AID 624415, 2012; in the data active means activity change below about -50%; inconclusive means about -30% to -50%; inactive means above about -30%;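 note: stimulus is agonist 54-4 at its EC80 concentration; % is set by controls: 0 for no effect and ±100 for the full control effect; the text of the record puts the active cut at -80%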
# Target sequence (Q9GZU1 whole entry, looked up): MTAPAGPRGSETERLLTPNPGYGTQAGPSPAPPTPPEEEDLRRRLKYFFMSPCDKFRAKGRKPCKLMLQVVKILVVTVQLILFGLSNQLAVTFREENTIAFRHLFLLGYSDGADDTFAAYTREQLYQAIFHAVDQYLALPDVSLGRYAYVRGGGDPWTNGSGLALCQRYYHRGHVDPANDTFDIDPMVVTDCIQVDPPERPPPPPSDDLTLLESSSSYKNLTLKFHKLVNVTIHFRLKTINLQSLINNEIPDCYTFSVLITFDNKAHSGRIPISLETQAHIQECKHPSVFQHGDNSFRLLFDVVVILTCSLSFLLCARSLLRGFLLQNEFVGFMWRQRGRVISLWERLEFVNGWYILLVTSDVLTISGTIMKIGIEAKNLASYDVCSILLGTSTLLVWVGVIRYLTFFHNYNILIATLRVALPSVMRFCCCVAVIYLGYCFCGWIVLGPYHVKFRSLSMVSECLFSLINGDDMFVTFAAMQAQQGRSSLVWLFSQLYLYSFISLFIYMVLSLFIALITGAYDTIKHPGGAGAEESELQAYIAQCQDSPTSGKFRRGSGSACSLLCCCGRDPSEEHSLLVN
#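 Tet-induced TRPML1-DL cells loaded with Ca8 no-wash calcium dye were read kinetically on FDSS. Compound addition was followed by EC80 agonist 54-4 (4 uM final); inhibition was read over 110 s.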
# D2 agonist – Beta-Arrestin HTS for Positive Allosteric Modulators of the Human D2 Dopamine Receptor: Agonists; D(2) dopamine receptor (Homo sapiens), P14416; DiscoveRx PathHunter D2 beta-arrestin, luminescence, 90 min; 100% = 57 uM dopamine signal; activation, % (concentration not given with the values); AID 624465, 2012; 0.084% of 360,000 active; in the data active = activation above about 40%; inconclusive = about 15% to 40%; inactive = below about 15%; note: compound concentration not given in the record; the text of the record calls up to 30% inactive
# Target sequence (P14416 whole entry, looked up): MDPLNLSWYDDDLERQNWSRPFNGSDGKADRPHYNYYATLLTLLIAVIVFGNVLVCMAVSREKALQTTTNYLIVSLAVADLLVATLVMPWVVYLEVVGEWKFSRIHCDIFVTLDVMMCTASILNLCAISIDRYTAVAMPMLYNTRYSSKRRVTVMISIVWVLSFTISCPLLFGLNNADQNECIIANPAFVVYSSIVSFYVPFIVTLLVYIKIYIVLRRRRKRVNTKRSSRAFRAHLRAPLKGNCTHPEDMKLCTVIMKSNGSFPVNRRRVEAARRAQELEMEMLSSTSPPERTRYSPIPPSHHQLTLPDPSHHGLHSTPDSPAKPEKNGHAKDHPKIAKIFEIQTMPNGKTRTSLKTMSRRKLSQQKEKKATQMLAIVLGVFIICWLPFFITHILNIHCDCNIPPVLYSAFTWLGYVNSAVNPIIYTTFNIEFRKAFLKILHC
#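 Agonist mode: compounds alone added to overnight-plated D2 PathHunter cells for 90 min at 37 C, with 57 uM final dopamine (EC100) defining full response. Beta-arrestin recruitment detected by chemiluminescent reagent, read after 1 h at ambient temperature.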
# PINK1 expr mod – A Quantitative High throughput Screen to Identify Chemical Modulators of PINK1 Expression | PINK1 immunofluorescence, high-content cytometry, 24 h | Potency, µM (series often up to 76.6 µM), without a hit: top-dose activation (PINK1 increase), hits mostly activators | 0.2% of 410,000 active; active = well fitted activation curve with a large enough effect; inconclusive = small, poorly fitted or top-dose-only effect; inactive = flat fitted curve, though single readings scatter; cell line not stated here;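 note: potency is the fitted concentration of half-maximal effect; % of control where 0% means no effect; nearly all actives have a fitted effect of over 65% in size; a mitochondrial uncoupler was the plate control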
#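 Cells are seeded, rested 12 hours, then given compound at five concentrations or DMSO for 24 hours. After fixation, blocking and antibody staining, PINK1 amount and mitochondrial localization are scored; CCCP serves as control.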
# TRPML1 ag – qHTS for Agonists of the Human Mucolipin Transient Receptor Potential 1 (TRPML1); TRPML1-expressing cells, Ca2+ dye fluorescence, FDSS; host cell line not named in the record; reference of the full effect not given here; activation, % (concentration not given with the values); Mucolipin-1 (Homo sapiens), Q9GZU1; 0.12% of 410,000 active; in the data active = activation above about 50%; inconclusive = about 30% to 50%; inactive = below about 30%; note: 0% is about no effect; the text of the record puts the active cut at 80%
#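 Tet-induced TRPML1-DL cells, 1,500 per well, cultured overnight, were loaded with a no-wash Ca2+ dye for 45–90 min. Calcium fluorescence was recorded on the FDSS for 110 s after compound addition, before the EC80 agonist (4 uM 54-4) was added.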
# Six1-Eya2 inh – qHTS Assay for Inhibitors of the Six1/Eya2 Interaction; AlphaScreen GST-Six1/His-Eya2 binding, biochemical; active compounds read low; control for the full effect not named in the record; activity change, % (concentration not given with the values); 0.56% of 360,000 active; in the data active = activity change below about -65%; inconclusive = about -30% to -65%; inactive = above about -30%; note: % is set by controls: 0 for no effect and ±100 for the full control effect
#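 Six1/Eya2 binding was read as AlphaScreen signal after compounds were pinned into GST-Six1 plus His-tagged Eya2 (5X stock 250/500 nM) in pH 8.0 Tris/NaCl/TCEP buffer, beads added, then incubated 1 h, 37 C, dark.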
# D2 PAM – Beta-Arrestin HTS for Positive Allosteric Modulators of the Human D2 Dopamine Receptor: Potentiators; D(2) dopamine receptor (Homo sapiens), P14416; AID 624464, 2012; potentiation, % (test concentration not listed); DiscoveRx D2 beta-arrestin cells, luminescence, 90 min; 100% = 57 uM dopamine signal; 0.23% of 360,000 active; active = potentiation of 50% or more; inconclusive = 30% to 50%; inactive = 30% or less;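 note: compound concentration not given in the record; tested on top of an EC20 dose of dopamine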
#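 PathHunter D2 cells, attached overnight at 37 deg C, received compound in DMSO plus dopamine at EC20 (50 nM final) for 90 min at 37 deg C. Beta-arrestin recruitment was read as luminescence after 1 h with detection reagent at ambient temperature.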
# * hit, by the source's call; ? = inconclusive; . = not tested or not shown; [ ] = another dose, or the depositor's remark.
SMILES,TRPML1 blocker,D2 agonist,PINK1 expr mod,TRPML1 ag,Six1-Eya2 inh,D2 PAM
CC1(C)CC(=O)C2=C(C1)N(Cc1ccccc1)C(=O)C2(O)C(F)(F)F (stereo unspecified),2.4,-2.2,-0.1%,0.0,2.6,-8.2
NC(=O)COC(=O)c1cc(-c2cccs2)nn1-c1ccccc1,27.2,1.1,1.0%,2.6,2.4,-14.9
O=C(O)CSc1nnc(-c2cccc(S(=O)(=O)N3CCCCC3)c2)o1,-4.0,-0.1,0.6%,-0.2,-1.0,4.8
COc1cc(NC(=O)N[C@@H](CCSC)C(=O)O)cc(OC)c1,-7.7,0.3,-2.0%,1.0,2.3,-2.8
COc1ccc(S(=O)(=O)N(Cc2ccc(OC)c(OC)c2)Cc2ccco2)cc1,2.8,2.2,-2.3%,1.8,-14.1,-7.9
COc1ccc(Nc2n[nH]c(C)c2[N+](=O)[O-])cc1,2.5,-6.6,-1.4%,3.0,-5.7,-2.4
CCOC(=O)N1CCN(S(=O)(=O)c2ccc(OC)c(Cl)c2)CC1,-4.8,-2.1,0.8%,3.9,-1.5,2.7
Cc1ccc(C(=O)NC(C)c2ccncc2)o1 (stereo unspecified),0.9,0.1,0.5%,-0.6,3.9,3.5
CCOC(=O)N1CCN(c2nc(C)c3c(n2)CCCC3=O)CC1,-18.7,2.1,-0.4%,0.5,-0.7,7.2
CCc1nc2cccnc2n1-c1ccc(CC(=O)Nc2ccc(C)cc2)cc1,-5.3,.,1.9%,3.2,.,.
COc1ccc(CCC(=O)NCc2ccccc2OC)cc1,-18.3,-5.0,0.1%,0.2,9.5,-20.8
CCOc1ccc(NS(=O)(=O)c2ccc(C(=O)N3CCC3)cc2)cc1,-2.6,-0.3,0.8%,-0.5,3.4,-12.7
CCOC(=O)[C@]12CCC=C1N(Cc1ccccc1)C(=O)[C@H](CC(=O)NCCC(C)C)C2,.,.,1.6%,-0.5,1.5,.
Cn1ccnc1COc1ccc(/C=N/O)cc1,14.9,-2.8,0.5%,-0.5,1.4,-2.7
NC(=O)C1CCCN(C(=O)NC2CCCCC2)C1 (stereo unspecified),15.8,0.7,-0.9%,0.2,6.8,-6.4
Cc1ccc(Cl)cc1NC(=O)N1CCN(C)c2ncccc21,-27.4,.,1.9%,0.2,.,.
Cc1ccccc1C(=O)NC(=S)Nc1ccc(S(=O)(=O)N2CCN(C)CC2)cc1,8.4,-12.5,-0.5%,-0.9,-16.8,-13.3
COc1ccccc1CCNC(=O)c1csc2c1CCCC2,1.0,-3.4,4.1%,0.5,-11.1,-14.4
Clc1ccc(-c2cnnc(-c3ccccn3)n2)cc1,-16.1,-3.3,-0.8%,-0.3,-86.3*,-13.4
O=C(CSc1nc(=O)[nH]c2c1CCCC2)Nc1ccc(Cl)c(Cl)c1,-10.9,.,-1.0%,-0.7,.,.
CCOC(=O)c1ccc(NC(=O)CC2C(=O)N(c3ccc(F)cc3)C(=O)N2CCCOC)cc1 (stereo unspecified),-12.0,0.8,3.5%[38.3 µM],0.1,-2.4,-2.4
c1ccc(CSC2=NCCS2)cc1,-14.2,-1.3,6.2%,0.9,22.5,-4.0
CCN(Cc1ccncc1)Cc1nc(CC2CC2)no1,9.1,-7.1,5.5%,0.0,-4.0,-2.3
CCC(CC)NC(=O)C1CCN(c2ccc(S(=O)(=O)N3CCOCC3)cc2[N+](=O)[O-])CC1,-3.2,2.6,0.8%,-0.1,0.6,-0.5
Cc1ccc(C)c2sc(N3CCN(C(=O)c4ccc([N+](=O)[O-])o4)CC3)nc12,-8.1,0.9,1.4%,-0.4,-5.5,28.0
CC(C)NS(=O)(=O)c1ccc(NC(=O)C2CCCCC2)cc1,26.2,-0.3,-1.6%[38.3 µM],0.0,5.5,9.3
O=C(COC(=O)c1cccc(O)c1)NC(=O)Cc1ccccc1,-5.3,-1.9,0.9%,1.6,4.7,1.8
COc1ccc(C(C)N2CC34C=CC(O3)C(C(=O)O)C4C2=O)cc1 (stereo unspecified),9.2,-2.8,0.0%,-0.3,4.7,1.6
CCCNC(=O)c1ccc2c(c1)nc(C)n2-c1cccc(Cl)c1,.,1.7,-0.1%,.,?,-7.1
Cc1ccc(C)n1-c1nnc(N2CCC(C(=O)NCCCN3CCN(C)CC3)CC2)s1,-7.9,-7.1,1.0%,0.2,-0.2,-5.4

# Five of the compounds above, bar-delimited.
SMILES | TRPML1 blocker | D2 agonist | PINK1 expr mod | TRPML1 ag | Six1-Eya2 inh | D2 PAM
CC(C)NS(=O)(=O)c1ccc(NC(=O)C2CCCCC2)cc1 | 26.2 | -0.3 | -1.6%[38.3 µM] | 0.0 | 5.5 | 9.3
CCC(CC)NC(=O)C1CCN(c2ccc(S(=O)(=O)N3CCOCC3)cc2[N+](=O)[O-])CC1 | -3.2 | 2.6 | 0.8% | -0.1 | 0.6 | -0.5
COc1ccc(C(C)N2CC34C=CC(O3)C(C(=O)O)C4C2=O)cc1 (stereo unspecified) | 9.2 | -2.8 | 0.0% | -0.3 | 4.7 | 1.6
CCOC(=O)c1ccc(NC(=O)CC2C(=O)N(c3ccc(F)cc3)C(=O)N2CCCOC)cc1 (stereo unspecified) | -12.0 | 0.8 | 3.5%[38.3 µM] | 0.1 | -2.4 | -2.4
O=C(COC(=O)c1cccc(O)c1)NC(=O)Cc1ccccc1 | -5.3 | -1.9 | 0.9% | 1.6 | 4.7 | 1.8

# Remaining list, next part.
SMILES,TRPML1 blocker,D2 agonist,PINK1 expr mod,TRPML1 ag,Six1-Eya2 inh,D2 PAM
Cc1cc(-c2ccccc2)nc(N(C)NC(=O)C2CC2)c1S(C)(=O)=O,4.4,-4.8,2.6%,0.5,16.5,-19.0
COc1ccc(CNc2nc(SC)n[nH]2)cc1OC,-12.2,-4.1,0.4%,-0.4,-8.4,-0.9
NS(=O)(=O)c1ccc(NS(=O)(=O)c2ccc(NC(=S)Nc3ccccc3)cc2)cc1,-7.6,-4.3,0.1%,1.6,14.1,-8.0
Cc1ccc(NC(=O)C2(c3cccs3)CCOCC2)cc1Cl,-9.5,.,2.1%,0.1,.,.
COc1ccc(NC(=O)CN(C)C(=O)CSc2ccc3c(c2)OCCO3)cc1,1.2,3.3,-0.6%,-0.1,-10.4,0.9
COc1cccc(OCC(O)CN2CCC(CN3C(=O)c4cccc5cccc(c45)C3=O)CC2)c1 (stereo unspecified),5.1,-4.9,-2.9%,1.5,-22.0,-19.5
CC1CN(C(=O)c2cc3ccccc3cc2O)CC(C)O1 (stereo unspecified),-5.8,2.6,0.8%,-0.7,-0.5,6.5
COc1ccc(-c2ccc(C(=O)NCc3ccc(N(C)C)cc3)c3occc23)c(C)c1,-2.8,-3.1,0.0%,0.8,-65.0*,-12.2
Brc1ccccc1-c1nnc(CSc2nncn2-c2ccccc2)o1,4.4,-1.7,?,2.9,-0.2,-1.0
Cc1ccc(NC(=O)CCCNC(=O)c2ccc(Cl)cc2)cc1S(=O)(=O)N1CCCCC1,21.3,-7.9,2.2%,0.6,1.1,-12.2
CN1C(C(=O)NCc2cccc(C(F)(F)F)c2)CC2Cn3c(nc4cc(Cl)c(Cl)cc43)C21 (stereo unspecified),7.5,-2.5,-0.5%,1.2,-2.5,-6.8
Cc1ccc(OCC(=O)Nc2ccccc2F)cc1C,16.7,-1.7,0.9%,3.8,24.3,-2.1
CCC(=O)Nc1ccc2nc(C3CC3)n(Cc3ccc(C(C)(C)C)cc3)c(=O)c2c1,0.2,3.7,6.6%,0.5,-0.4,-2.7
Cc1ccsc1C1C2=C(CCCC2=O)Nc2ncnn21 (stereo unspecified),2.1,-1.7,3.0%,-1.1,0.7,-7.6
COC(=O)c1cc2oc3ccccc3c2n1Cc1ccccc1Cl,24.3,.,0.0%,1.2,.,.
CCOC(=O)Nc1ccc(S(=O)(=O)N2CCC(C)CC2)cc1,2.1,-0.3,7.6%,-0.1,2.7,-12.9
Cc1cccc(N2CCN(C(=O)CS(=O)(=O)c3cccc4nsnc34)CC2)c1C,5.2,.,-4.7%,0.1,.,.
COc1cccc(CN2CCC(n3nccc3NC(=O)CCCc3ccccc3)CC2)c1O,-4.2,-0.1,-0.1%,0.4,2.5,-8.3
CC1CC(C)CN(S(=O)(=O)c2ccc3c(c2)NC(=O)C(C)C(=O)N3)C1 (stereo unspecified),44.8,-0.5,12.0%,0.4,2.7,-3.9
O=C(Nc1nc(-c2ccccc2)cs1)C1CCCN(S(=O)(=O)c2cccc([N+](=O)[O-])c2)C1 (stereo unspecified),2.0,4.3,2.0%,0.7,-15.1,?
O=C1C=CC(c2ccccc2)(c2ccccc2)CC1,-10.4,-1.6,-1.0%,-0.4,-3.8,0.9
COC(=O)[C@@]12CCCCN1[C@H](c1ccc(-c3ccc(OC)cc3)cc1)[C@H]1C(=O)N(C)C(=O)[C@H]12,7.1,-2.1,1.1%,-0.6,4.4,-10.0
CCOC(=O)c1c(NC(C)=O)c2c3c(sc2n1Cc1nc(-c2ccc(Cl)cc2)oc1C)CCCC3,0.2,.,1.3%,0.5,.,.
COCCNC(=O)Cn1cc2c(n1)-c1c(oc(C(=O)N3CCCC3)c1C)CC2,11.4,.,3.8%,0.1,.,.
CCCSc1ncc(Cl)c(C(=O)Nc2sc3c(c2C(=O)NCCOC)CCCC3)n1,20.3,.,0.1%,1.8,.,.
CCc1cccc2c(-c3ccc(F)cc3)nc(SCC(=O)Nc3ccccc3)nc12,15.5,.,0.4%,-0.6,.,.
O=C(NCCOCCn1c(=O)oc2ccccc21)Nc1ccc(Cl)cc1,3.6,.,-0.8%,-0.6,.,.
NC(=O)COC(=O)CSc1cccc2cccc(Cl)c12,0.9,2.4,2.1%,-0.2,1.2,1.0
Cc1cc(F)ccc1S(=O)(=O)N1CCCOC1CNC(=O)C(=O)NCCN1CCOCC1 (stereo unspecified),-1.9,3.1,1.2%,0.2,-2.1,13.7
CC1(C(=O)NS(=O)(=O)c2cccc(F)c2)CCN1C(=O)C1CCCCC1 (stereo unspecified),.,-5.2,0.7%,-0.2,9.6,-3.5
CC(C)NC(=O)NC(=O)COC(=O)CCOc1ccccc1,-4.4,2.4,-0.7%,-1.7,4.5,-3.7
Cc1nn(-c2ccccc2)c(C)c1/C=N/NC(=O)c1cc(-c2cccc3ccccc23)n[nH]1,-3.9,-1.8,3.7%,1.1,0.6,-12.2
CCOC(=O)c1ccc(NC(=O)CCSCCc2ccccn2)cc1,-17.2,-1.6,-0.5%,0.7,-0.7,-0.8
Cc1ccc(CC(NC(=O)C2CCCCC2)C(=O)O)cc1 (stereo unspecified),13.8,-2.2,0.1%,0.3,11.7,.
